Sa helicase inh = S. aureus DNA helicase inhibition. purified S. aureus helicase, fluorescence unwinding assay; about half of the hits fall short of the stated cut. inhibition, %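 (tested at about 80 µM)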. hit rate 0.05% among 120,000;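 active = both duplicates at 50% or more, or one of them with a favoured structure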;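 also: 0% = mean of negative control wells and 100% = mean of positive control wells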
MgrA DNA FP = modulators of Staphylococcus aureus MgrA DNA binding; fluorescence polarization; inhibition, %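 (about 10 µg/mL by stock and volumes)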; hit rate 0.13% among 84,000;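 active = above 50% in either of two replicates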;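 also: 0% = protein plus DNA without compound and 100% = DNA alone without protein; higher means less MgrA bound to DNA so lower polarization; one replicate is shown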
An asterisk follows results filed as active; i = inactive; x = no result given.

mol	Sa helicase inh	MgrA DNA FP
C/C(=N\OCCN1CCCCC1)C1COc2ccccc2O1 (stereo unspecified)	2.0	-2.0
N#Cc1cnn2c1[nH]c(=O)c1ccccc12	x	-0.3
Cc1c(C(=O)NCc2cccnc2)oc2ccc3c(c12)C(=O)CC1(CCCC1)O3	4.0	x
N#CCCN(C(=O)c1ccc2c(=O)n3c(nc2c1)CCCC3)c1ccccc1	-6.0	0.1
CCn1cc(NC(=O)NCC2CCCCC2)c(=O)c2ccc(C)nc21	-11.0	x
CCCOc1ccc(Cn2cnc3ccccc32)cc1	-12.0	x
CCOC(=O)c1c(-c2ccccc2)oc2c1cc(OC(=O)c1cc([N+](=O)[O-])cc([N+](=O)[O-])c1)c1ccccc12	x	1.2
COC(=O)c1csc2c(C(F)(F)F)cc(N3CCN(C(=O)c4cc(Cl)cc(Cl)c4)CC3)nc12	x	0.7
O=C(CCS(=O)(=O)c1ccc(Br)cc1)N1CC(=O)N(CCc2ccccc2)C(=O)C1	8.0	-0.1
CCN(CC)C(=O)COCc1cc(-c2ccco2)on1	-7.0	x
COc1cc(/C=N/OCC(=O)NC2CC2)cc(Cl)c1OC	-9.0	x
Cc1cc(-c2csc(N)n2)c(C)n1-c1ccc2c(c1)OCO2	-9.0	x
Cn1c(=O)c2sccc2n2c(CCCC(=O)NC3CCN(Cc4ccccc4)CC3)nnc12	-9.0	x
CCC1CCCCN1C(=O)CSCc1ccco1 (stereo unspecified)	2.0	0.7
COC(C)n1cc(Br)c(=O)[nH]c1=O (stereo unspecified)	-7.0	-1.5
Cc1nc(Nc2ccccc2)sc1C(=O)c1cc2ccccc2s1	x	0.0
O=C(CNC(=O)C1CCCCC1)OCc1cc(=O)n2c(n1)sc1ccccc12	-9.0	x
O=C(Cc1ccccc1)N1CCCc2ccccc21	12.0	-1.9
O=C(NCc1ccccc1)c1ccc2nc(-c3cccs3)c(-c3cccs3)nc2c1	1.0	-1.9
O=C(Cc1ccsc1)NCCc1ccc2c(c1)OCCO2	10.0	x

Exported with values ahead of the structure: part of the list above
Sa helicase inh,MgrA DNA FP,SMILES
x,-0.3,N#Cc1cnn2c1[nH]c(=O)c1ccccc12
4.0,x,Cc1c(C(=O)NCc2cccnc2)oc2ccc3c(c12)C(=O)CC1(CCCC1)O3
-6.0,0.1,N#CCCN(C(=O)c1ccc2c(=O)n3c(nc2c1)CCCC3)c1ccccc1

(cont.)
mol	Sa helicase inh	MgrA DNA FP
CCOc1ccccc1N1CCN(S(=O)(=O)c2cccs2)CC1	13.0	x
OC1CCN(CC(O)COc2ccc(Cl)c(Cl)c2)CC1 (stereo unspecified)	x	-2.5
O=C1CCSc2ccc(F)cc21	x	-1.4
CC(C)c1c(C#N)c(N)nc(SCC(=O)c2cc3ccccc3oc2=O)c1C#N	-4.0	x
C=CCn1c(Br)nc2c1c(=O)n(C)c(=O)n2C	6.0	-1.0
Nn1c(SCC(=O)NC2CCCc3ccccc32)nnc1-c1cccs1 (stereo unspecified)	-6.0	x
CCOC(=O)N1CCN(S(=O)(=O)c2ccc(C(=O)Nc3ccc4c(c3)C(=O)NC4=O)cc2)CC1	4.0	x
O=C(Nc1nnc(C2CC2)s1)c1cccc(S(=O)(=O)N2CC(c3ccccc3)CC2=O)c1 (stereo unspecified)	0.0	x
O=C(COc1ccccc1F)OCC(=O)N1CCCCC1	-15.0	-2.2
CCCCCC1C/C(=N/OC(C)=O)C=C(C)C1C(=O)OC (stereo unspecified)	7.0	-2.2
O=C1/C(=C/c2ccccn2)CCc2ccccc21	x	-2.0
CN1CCN(Cc2nnnn2CC2CCCO2)CC1 (stereo unspecified)	-4.0	-3.6
CCOc1ccc(NC(=O)NS(=O)(=O)c2ccc(C)cc2)cc1	9.0	1.6
O=C(CSC1=NCCS1)NC(=O)c1ccccc1	-19.0	4.3
O=C(c1ccc(C(=O)N2CCc3ccccc3C2)cc1)N1CCc2ccccc2C1	8.0	0.2
Cc1cc(OC(=O)c2ccccc2)n(CCC#N)n1	15.0	1.2
CC(C(=O)Nc1ccc(S(=O)(=O)N2CCCCC2)cc1)N1CCCCCC1 (stereo unspecified)	-5.0	x
Cc1ccc(N2CCN(Cc3sccc3C)CC2)cc1	-1.0	-3.5
CCCNC(=O)C1=C(C)C(=O)OC12CCN(CC)CC2	12.0	x
Cc1ccc2nc(NC(=O)c3ccc(F)cc3)sc2c1	-5.0	x
CC(=S)N1CCN(C(C)=S)CC1	19.0	-0.3
CC(C)(C)C(=O)Nc1ncnc2sc3c(c12)CCCC3	-1.0	x
Cn1c(C(=O)O)c(CC(=O)N2CCCC2)c2ccccc21	6.0	x
Cc1ccc(SCC(=O)N2CCOCC2)cc1	2.0	x
CN(C)C(=S)Sc1c(O)c2ccccc2n(C)c1=O	x	3.3
CCOC(=O)C1CCCN(C(=S)NC2CCCC2)C1 (stereo unspecified)	-9.0	0.7
COc1cc(OC)c(N(C)C(=O)c2ccc3c(=O)n4c(nc3c2)CCCCC4)cc1Cl	18.0	1.5
O=C(c1ccc(-c2ccc(F)cc2)o1)N1CCC(c2ccccc2)CC1	17.0	-1.4
CS(=O)(=O)CS(=O)(=O)C1=C(N2CCOCC2)C2CCN1CC2	10.0	2.0
CC(O)(C(=O)Nc1ccc(S(=O)(=O)c2ccccc2)cc1)C(F)(F)F (stereo unspecified)	x	-0.3
CN=c1scc(-c2cc(OC)ccc2OC)n1/N=C/c1ccco1	11.0	x
C/C(=N\OC(=O)c1ccc(S(=O)(=O)N2CCCC(C)C2)cc1)c1ccc(C)o1 (stereo unspecified)	19.0	x
Cc1nc2ccc(NC(=O)CS(=O)(=O)c3ccc(F)cc3)cc2s1	10.0	x
OCCCNCc1ccccc1Cl	4.0	-2.5
CCOC(=O)C1CCCN(C(=O)c2ccc(OCC)cc2)C1 (stereo unspecified)	8.0	1.4
CC(Sc1nnc(N)s1)C(=O)NC(C)C1CC2CCC1C2 (stereo unspecified)	6.0	x
CSc1nnc(CNC(=O)OC(C)(C)C)n1C	x	4.2
Cc1cc2n(n1)CCCN2C(=O)CCC(=O)N1CCCCCC1	-12.0	x
N#Cc1ccc(Oc2ccccc2)cc1C#N	4.0	1.9
FC(F)(F)c1ccccc1-n1c(-c2ccco2)n[nH]c1=S	-3.0	4.3
Cc1ccc(N=C2C(=O)N(C)c3ccccc32)cc1	x	0.8
COc1ccccc1NC(=O)CSc1ncnc2c1nnn2Cc1ccccc1	4.0	-1.2
O=C1OC(c2ccccc2)=N/C1=C\c1ccc(Cl)cc1Cl	x	-1.5
CCOC(Cn1c(SCC#N)nc2ccccc2c1=O)OCC	4.0	1.0
COc1ccccc1CNC(=O)c1ccccc1N(C)S(C)(=O)=O	9.0	3.3
CC(C)c1ccc(C(=O)Nc2ccccc2C#N)cc1	10.0	1.2
O=C(NC(=O)c1cn2cc(C(F)(F)F)cc(Cl)c2n1)Nc1ccc(Cl)cc1	x	-0.4
CCN(CC)C(C(=O)O)c1ccccc1 (stereo unspecified)	12.0	0.7
CSCCC(C(=O)Nc1cccnc1)N1C(=O)c2ccccc2C1=O (stereo unspecified)	9.0	x
FC(F)(F)c1cccc(Nc2ncnc(-n3cccc3)n2)c1	x	-1.0
OC1(c2ccc(Cl)cc2)CSc2nc3cc(C(F)(F)F)ccc3n21 (stereo unspecified)	x	1.3
Cc1nn(-c2cccc(C(F)(F)F)c2)c2c1cnn2-c1nc2ccccc2o1	3.0	x
O=C(Sc1ccc(C(F)(F)F)cn1)/C(=C\c1cccs1)c1ccsc1	x	2.0
N#CC(C#N)=Cc1ccc(-c2cc(C(F)(F)F)cc(C(F)(F)F)c2)o1	x	1.2
CC(C)N1C(=O)CNC1=S	7.0	x
NC(=O)c1ccccc1Nc1cccc(C(F)(F)F)c1	11.0	1.1
COc1ccc(CCN2C(=O)CC(Sc3ccccc3C(=O)O)C2=O)cc1OC (stereo unspecified)	5.0	-2.8
Cc1ccccc1Nc1nc2ccccc2s1	5.0	-1.5
Cc1ccc(C)c(OCCCCn2nnc3ccccc32)c1	0.0	2.1
S=c1nc(-c2cccs2)[nH]c2ccccc12	-8.0	x

A draw from above in order of count of non-hydrogen atoms, low to high.
mol	Sa helicase inh	MgrA DNA FP
S=c1nc(-c2cccs2)[nH]c2ccccc12	-8.0	x
NC(=O)c1ccccc1Nc1cccc(C(F)(F)F)c1	11.0	1.1
COc1ccc(CCN2C(=O)CC(Sc3ccccc3C(=O)O)C2=O)cc1OC (stereo unspecified)	5.0	-2.8

Next section
The line under a structure holds: Sa helicase inh, MgrA DNA FP
CCn1c(SCc2cc(=O)oc3cc(NC(C)=O)ccc23)nnc1-c1ccccc1
→ 8.0, x
Cc1ccccc1C(=O)N/N=C/c1ccccc1
→ 4.0, x
CCC(=O)c1c[nH]c(C(=O)NCc2cccnc2)c1
→ x, -0.7
N#Cc1c(NC(=S)Nc2ccccc2)sc2c1CCC2
→ -3.0, 1.6
O=C(O)CC1Sc2ccccc2NC1=O (stereo unspecified)
→ -12.0, x
CCNc1nc(=S)[nH]c2ccccc12
→ 0.0, x
Cc1cc(C)c(Nc2nnns2)c(C)c1
→ x, 4.6
Cn1nc(C(F)(F)F)cc1C(=O)Nc1ccc(Cl)cc1
→ x, -6.9
COc1ccc(-n2c(C)nc3ncnc(-c4ccccc4)c32)cc1
→ x, -13.6
CCc1cccc(NC(=O)C2c3ccccc3C(=O)N(C)C2c2cn(C)c3ccccc23)c1 (stereo unspecified)
→ -1.0, -0.8
COC(=O)c1ccc2c(c1)N(C)S(=O)(=O)/C(=C\N(C)C)C2=O
→ -26.0, x
CC(=O)N(CN1C(=O)C2CC=CCC2C1=O)c1ccccc1 (stereo unspecified)
→ 5.0, 4.7
COc1ncccc1C(=O)Nc1ccc(F)cc1F
→ x, -2.3
O=C(NNc1nc2ccccc2s1)Nc1ccccc1
→ 2.0, x
O=C(CCn1c(=O)oc2ccccc21)Sc1ccc(Cl)cc1Cl
→ x, -4.6
CN(C)/C=C/C=C1\CCc2ccccc2C1=O
→ i, 17.5
Cc1cc(C)cc(CC2CC(=O)N(CCc3ccc4c(c3)OCO4)C2=O)c1 (stereo unspecified)
→ 3.0, -1.1
CCN(CC)S(=O)(=O)c1ccc(-n2c(=O)c(C(C)C)c(C)n2C)cc1
→ 4.0, -1.1
CCOC(=O)c1cn(-c2ccc(Cl)cc2)nc1C(F)(F)F
→ -7.0, -3.2
COc1ccc(CC(=O)Nc2ccccc2N2CCOCC2)c(OC)c1
→ 1.0, x
CC(=O)Nc1sc2c(c1CN1CCN(c3ccccn3)CC1)CCCC2
→ 9.0, 1.5
O=C(CN1C(=O)C(c2ccccc2)Oc2cccnc21)NCCCN1CCCCC1 (stereo unspecified)
→ -3.0, -0.1
Cc1noc(C)c1C(=O)OCC(=O)N1CCCC1=O
→ -17.0, x
COc1ccc(-n2ccc3ccccc32)cc1
→ 10.0, 1.4
CC(=O)Nc1ccc(NC(=O)C2CCCN(c3cnccn3)C2)cc1 (stereo unspecified)
→ -17.0, x
O=C1Cc2ccc(F)cc2CC1C1=Cc2ccc(F)cc2CC1 (stereo unspecified)
→ x, 17.2
Cc1nc2ccc(Cl)cc2c2c1CCS2
→ 19.0, x
OC1CCCc2c1[nH]c1ccc(C(F)(F)F)cc21 (stereo unspecified)
→ 20.0, x
Cc1nc(C)c(Oc2ccc(Cl)cc2Cl)c(N2CCCCC2)n1
→ x, 2.4
CCOC(=O)c1c(NC(C)=O)sc2c1CCC2
→ 7.0, -1.2
CCCCN(C)C1CCN(Cc2ccccc2)CC1
→ 0.0, 1.6
Cc1nn(CCC#N)c2nc(-c3ccc(C4CCCCC4)cc3)cc(C(=O)O)c12
→ 8.0, x
COc1ccc(C2NC(=O)NC(C)=C2C(=O)OCCOc2ccccc2)cc1OC (stereo unspecified)
→ x, -0.7
CN1C(=O)COc2ccc(C(=O)CSc3nc(-c4ccccc4)c(C#N)c(=O)[nH]3)cc21
→ 1.0, x
Cc1nn(CCCN)cc1Cl
→ 16.0, -5.0
CC1(C)NC(=O)N(CC(O)COc2ccc(N3C(=O)C4CC=CCC4C3=O)cc2)C1=O (stereo unspecified)
→ x, 3.3
CC(=O)Nc1ccc(-c2ccc3nnc(C)n3n2)cc1
→ 22.0, x
Cc1cc(C)c2c(c1)/C(=c1/sc3n(c1=O)CN(c1cccc(Br)c1)CN=3)C(=O)N2
→ 4.0, 1.6
FC(F)(F)c1nc2ccccc2n1Cc1ccccc1
→ -31.0, x
CCOC(=O)C1CCN(C(=O)c2ccccc2NS(=O)(=O)c2cccs2)CC1
→ -10.0, x
CSc1cc(-c2ccc(Cl)cc2)c(C(=O)O)s1
→ x, -0.2
Cc1ccc(-n2c(SCC(=O)NCCC3=CCCCC3)nc3n[nH]c(C)c3c2=N)cc1Cl
→ 6.0, x
O=C(NC1CCCCC1)N1CCC(c2nc3ccccc3[nH]2)CC1
→ -13.0, x
COc1ccc(CCNC(=O)/C=C2\SC(=O)NC2=O)cc1
→ 1.0, x
O=C(CCSc1nnc(-c2ccc(O)cc2)o1)N1CCCCC1
→ 16.0, 0.6
COc1cccc2c3c(c(C)nc12)CCS3
→ x, 0.8
Cc1cc(C)nc(SCc2nnc(SCc3ccccc3)n2Cc2ccco2)n1
→ 11.0, 3.8
Cc1ccc(NC(=O)CSCC(N)=O)cc1C
→ 0.0, -1.9
C=CCn1c(=O)c2ccc(C(=O)NCc3ccccc3)cc2n(Cc2ccccc2C#N)c1=O
→ 5.0, -0.9
O=C(Nc1ccccc1)NN1CC(=O)N(c2cccc(C(F)(F)F)c2)CC1=O
→ 23.0, x
O=c1c2ccccc2nc2ccc(N3CCCC4CCCCC43)nn12 (stereo unspecified)
→ 9.0, x
COC(=O)c1sccc1NS(=O)(=O)c1cc(Cl)cc(Cl)c1
→ x, -1.1
COC(=O)C1=C(O)c2cccc3c2N(CCC3)C1
→ x, -0.8
COc1cccc(CNC2CCCC2)c1
→ 2.0, 1.9

This is a subset; rates above refer to the full screens.
